GALR2 agonist – GALR2 receptor agonists, primary screen, cell-based | hit rate 0.48% among 140,000 | GALR2-expressing cells, agonist activation read-out | activation, %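 (tested at 5 µM)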 | Galanin receptor type 2 (Homo sapiens), O43603;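 active = above mean plus 3 SD of all compounds, about 5% in these data, not always enough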;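 note: 0% = vehicle buffer wells and 100% = reference agonist at full effect; tested in CHO reporter cells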
Target sequence (O43603 whole entry, looked up): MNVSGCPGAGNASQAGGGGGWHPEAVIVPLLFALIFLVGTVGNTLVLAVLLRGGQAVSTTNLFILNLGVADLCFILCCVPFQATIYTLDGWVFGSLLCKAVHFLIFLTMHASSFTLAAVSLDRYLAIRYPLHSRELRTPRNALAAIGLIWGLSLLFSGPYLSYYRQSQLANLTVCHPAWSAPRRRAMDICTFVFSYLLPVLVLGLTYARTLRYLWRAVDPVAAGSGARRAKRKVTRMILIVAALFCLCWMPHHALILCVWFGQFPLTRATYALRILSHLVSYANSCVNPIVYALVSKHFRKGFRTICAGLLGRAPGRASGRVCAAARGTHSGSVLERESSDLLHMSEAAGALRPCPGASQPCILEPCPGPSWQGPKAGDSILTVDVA
HSV replic up – enhancers of HSV replication in host cells, fold increase, host cell viability | HSV replication augmentation in cells | maximum fold increase | hit rate 0.005% among 220,000 | AID 1956, 2009;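 active = peak rise of 1.5-fold or more in the series; inconclusive = self-fluorescent or not available for retest; tested in PC3 cells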;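 note: first round at 10 µM; read as green reporter fluorescence; hits show the peak of a series up to 25 µM; 1 = signal of infected wells without compound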
PKD1 kinase inh – inhibitors of human PKD1 kinase, biochemical, fluorescence polarization; AID 797, 2007; hit rate 0.056% among 200,000; PKD1 kinase fluorescence polarization assay; inhibition, %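 (about 10 µM by stock and volumes)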;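 active = inhibition of 50% or more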;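 note: controls were vehicle for no effect and a reference inhibitor for full effect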
Insulin prom inh – inhibitors of insulin promoter-driven GFP, primary screen, imaging, TRM-6 cells (human fetal islet line), eGFP reporter, cell count | AID 1273, 2008 | hit rate 0.9% among 130,000 | reporter expression induced with tamoxifen | inhibition, % at 2 µM;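 active = inhibition above the mean plus 3 SD, with well images judged a real hit on visual review, cut at about 60% in these data, passing the limit was not always enough; inconclusive = inhibition over the cutoff but images rejected on review; inactive = inhibition not above the cutoff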
RGS16-Gao – modulators of RGS16 binding to Galphao, primary screen, biochemical, human proteins, multiplexed bead flow cytometry. Regulator of G-protein signaling 16 (Homo sapiens) + Guanine nucleotide-binding protein …. bead-based flow cytometry RGS16-Galphao binding, fluorescence; actives lie on both sides. binding response (% of control), % at 10 µM. hit rate 0.38% among 220,000;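 active = below 25% or above 175%, edge rows of some plates excepted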;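 note: Galphao activated by GDP with aluminum fluoride before binding; 100% = wells without compound and 0% = beads without RGS; some results beyond the cut were filed as inactive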
Target sequence (O15492 whole entry, looked up): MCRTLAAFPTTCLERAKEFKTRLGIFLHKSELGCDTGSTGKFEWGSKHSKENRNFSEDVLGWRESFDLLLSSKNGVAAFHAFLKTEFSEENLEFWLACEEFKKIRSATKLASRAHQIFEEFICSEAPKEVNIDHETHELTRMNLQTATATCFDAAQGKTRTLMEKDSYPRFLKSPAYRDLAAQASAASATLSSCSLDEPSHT
Target sequence (P09471 whole entry, looked up): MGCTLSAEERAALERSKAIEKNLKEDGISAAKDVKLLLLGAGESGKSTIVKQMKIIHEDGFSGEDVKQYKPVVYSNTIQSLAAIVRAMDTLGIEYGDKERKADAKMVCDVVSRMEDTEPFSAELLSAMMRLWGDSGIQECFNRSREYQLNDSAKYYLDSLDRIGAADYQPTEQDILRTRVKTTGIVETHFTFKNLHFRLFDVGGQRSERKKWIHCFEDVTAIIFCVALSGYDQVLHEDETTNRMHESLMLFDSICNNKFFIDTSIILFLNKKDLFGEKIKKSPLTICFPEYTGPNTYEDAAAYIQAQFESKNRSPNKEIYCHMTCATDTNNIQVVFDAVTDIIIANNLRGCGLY
Insulin prom inh cell count – also measured in Insulin prom inh; calls as there; normalized cell count, %; measured here: cell count, toxicity; reference of the scale not given here;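 cells exposed to compound for 48 h; stained nuclei by imaging scaled within each plate; lower means fewer cells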
HSV replic up primary fold – recorded beside HSV replic up, whose call it bears; fold increase; compound at 10 µM; measured here: primary screen fold increase 10 uM; tested in PC3 cells;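 GFP signal in the first replicate; 1 = infected wells without compound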
Starred values were filed as active, the others as inactive; i = inactive; ? = inconclusive; · = not tested or not shown.

SMILES	GALR2 agonist	HSV replic up	HSV replic up primary fold	PKD1 kinase inh	Insulin prom inh	Insulin prom inh cell count	RGS16-Gao
COc1ccc(Cc2nc(-c3ccccc3)no2)cc1	-1.8	i	0.96	-10	-5	41	104
O=C(c1ccc(S(=O)(=O)NCC2CCCO2)cc1)N1CCN(c2ccccc2)CC1 (centres undefined)	·	i	0.91	5	·	·	108
CCOC(=O)Cc1c(C)nc2c(C#N)c(C)nn2c1C	-1.5	i	1	-15	23	92	98
CCOc1cc(NC(=O)C2CCCO2)c(OCC)cc1NC(C)=O (centres undefined)	-2.5	i	0.93	0	-21	95	102
CCOc1ccc2nc(NC(=O)c3cccnc3)sc2c1	2.1	·	·	-17	17	124	109
Cc1c(C(=O)OCC(=O)N(C)c2ccccc2)cccc1[N+](=O)[O-]	·	i	0.95	0	50	118	102
COC(=O)C1=C(Nc2ccc(C)cc2)C=C(C)C(C(=O)OC)C1c1cccc(OC)c1 (centres undefined)	-2.1	i	0.63	-4	-11	103	47
Cc1ccc(C(=O)Nc2nccs2)cc1	·	i	1	1	·	·	103
COc1cccc2c(=O)c(C/C=C(/C)Cl)c(C)[nH]c12	0.1	i	0.91	-12	·	·	94
c1coc(CN2CN=C(Nc3nc4ccccc4s3)NC2)c1	-1.4	i	1.1	-4	14	114	99
O=C(CN1CCCCC1)Nc1ccc(S(=O)(=O)N2CCOCC2)cc1	-3.1	i	0.88	-2	-4	100	164
CCOC(=O)N1CCC(=NNC(=O)Cn2ccc(C(F)(F)F)n2)CC1	·	i	0.98	-3	-25	178	96
CC(C)CCOP(=O)(c1ccc(N(C)C)cc1)C(Nc1ccccc1)c1ccc(N(C)C)cc1 (centres undefined)	·	i	1	·	·	·	98
OCC1(Cc2ccccc2)CCCN(Cc2cn[nH]c2-c2ccccc2)C1 (centres undefined)	·	i	0.99	-1	·	·	104
COC(=O)c1ccc(NC(=O)CCOc2ccccc2)cc1	·	i	1.1	-2	30	74	109
O=C1/C(=C/c2cccs2)Sc2ccccc21	-0.4	?	·	-8	·	·	101
CC(C)Oc1cccc(C(=O)C2CCCN(Cc3ccc(Oc4ncccn4)cc3)C2)c1 (centres undefined)	·	i	0.79	-7	·	·	100
COc1ccc(C(=O)NC2CCCCCC2)cc1S(=O)(=O)N1CCCc2ccccc21	-0.9	i	0.78	-10	17	116	105
CC1CC(C)CN(C(=O)COC(=O)c2cc3ccccc3cc2O)C1 (centres undefined)	-1.6	i	0.91	3	25	84	106
COc1cc(NC(=O)c2c(F)c(F)c(F)c(F)c2F)c(OC)cc1Cl	-2.1	i	0.71	-19	-178	47	102
O=C(c1cnn2c(C(F)(F)F)cc(-c3ccccc3)nc12)N1CCCCC1c1cccnc1 (centres undefined)	·	i	0.84	-5	·	·	98
CN(C)c1ccc(-c2nnc(SCC3CCCO3)n2C)cc1 (centres undefined)	·	i	0.79	-1	·	·	104
O=C(NCCO)c1ccc(Oc2ccc(C(F)(F)F)cc2[N+](=O)[O-])cc1	·	i	1	-5	0	124	104
COc1ccc(NC(=O)CN(C)S(=O)(=O)c2cccc3nsnc23)cc1OC	-1.3	i	0.99	-2	36	98	91
COc1ccc(C2=CC(=O)CC(c3ccc(OC)cc3)C2)cc1 (centres undefined)	·	i	1.1	6	21	113	107
CCc1cc(C(=O)c2ccc(C)cc2)c(NC(=O)CCl)s1	0.6	i	0.97	-9	3	95	103
CC(=O)O[C@H]1C[C@@]2(C)[C@@H](C[C@@H](O)[C@H]3[C@@]4(C)CC[C@@H](O)[C@@H](C)C4CC[C@@]32C)/C1=C(\CCC=C(C)C)C(=O)O (some centres undefined)	0.9	i	1.1	-10	5	108	95
Cc1ccc(/C=N/c2sc(Cc3ccccc3)c(C)c2C(N)=O)o1	-1.2	i	1.2	-8	·	·	72
Cn1nc([N+](=O)[O-])nc1Sc1nnc(-c2ccccc2)o1	-0.6	i	0.42	3	31	81	106
O=C(Nc1ccc(/C=C/c2nc3ccccc3o2)cc1)c1cccc(C(F)(F)F)c1	0.7	i	0.84	-4	16	83	104
CC1Oc2ccccc2N(Cc2ccccc2Cl)C1=O (centres undefined)	-0.8	i	1.1	-13	-26	74	105
CC1CC(C)CN(C(=O)Cn2c(=O)n(CCCCC(=O)NCc3ccco3)c(=O)c3ccccc32)C1 (centres undefined)	-1.0	i	1	-5	·	·	113
CCOc1ccc(-c2nnn(CC(=O)NCc3ccc(F)cc3)n2)cc1OCC	-1.2	i	0.81	-6	33	112	106
COCCNC(=O)COC(=O)/C=C/c1c(C)nn(Cc2ccc(Cl)cc2Cl)c1Cl	-1.8	i	0.95	0	12	39	97
CC1CC(C)(C)NC(=S)N1CCCC(=O)NCc1ccccc1 (centres undefined)	·	i	1	0	·	·	101
O=S(=O)(NC1c2cccc3cccc(c23)C1N1CCNCC1)c1ccc(Cl)cc1 (centres undefined)	·	i	0.96	-3	13	52	119
Nc1nc(SCc2ccccc2Cl)[nH]c(=O)c1-c1ccccc1	-3.7	i	0.91	-9	7	140	109
NC(=S)Nc1ccc(Cl)c(Cl)c1	·	i	1	·	·	·	98
CN(C)S(=O)(=O)c1ccc(NC(=O)C2COc3ccccc3O2)cc1 (centres undefined)	-0.4	i	1.1	-8	·	·	97
CCn1c(CNC(=O)c2ccccc2)nc2ccccc21	-1.2	i	1	-6	70	140	·
c1ccc2c(COn3nnc4ccccc43)cccc2c1	-1.8	i	0.89	-4	-43	124	99
CCOc1cccc(NC(=O)CSc2nncn2N)c1	-0.4	i	0.9	-3	-15	110	99
CN(C)/C=C(/C(=O)c1ccc(Cl)cc1)S(C)(=O)=O	·	i	0.94	0	5	77	107
CC(NC(=O)COc1ccccc1F)C1CC2CCC1C2 (centres undefined)	·	i	0.91	0	-43	107	105
NCCS	-0.6	i	0.92	2	0	87	98
CC(C)(C)C(=O)/C=c1\[nH]c(=O)/c(=C\c2ccccc2F)s1	·	i	0.79	-4	·	·	103
COc1cc(NC(=O)C23CC4CC(C2)CC(n2cnc([N+](=O)[O-])n2)(C4)C3)cc(OC)c1	-0.9	i	0.86	2	38	70	120
Cc1ccc(Cn2cc(/C=N/Nc3ccc([N+](=O)[O-])cn3)c3ccccc32)cc1	-1.9	?	·	-11	·	·	99
Cc1ccc(S(=O)(=O)N2CCOCC2)cc1NC(=O)CSc1ccccn1	·	i	0.9	1	·	·	99
CC(=O)Nc1nc2ccc(C(=O)NCCOC(=O)C3CCCCC3)cc2s1	·	i	0.87	-1	·	·	104
Nc1nc(SCC(=O)NN(c2ccccc2)c2ccccc2)n[nH]1	-1.1	i	1.1	8	-26	70	98
CC(C)CC(C(=O)NC1CCCCC1)N(Cc1cccs1)C(=O)c1snc(C(N)=O)c1N (centres undefined)	·	i	0.91	-1	-14	126	115
COc1ccc(C)cc1NC(=O)CSc1nnc(-c2ccc(Br)cc2)o1	-2.2	i	0.79	9	23	64	97
CS(=O)(=O)N(CC(O)Cn1c2ccccc2c2ccccc21)c1cccc2ccccc12 (centres undefined)	-1.4	i	0.85	-5	-21	40	104
C=CCn1c(SCC(=O)c2[nH]c(C)c(C(C)=O)c2C)nnc1-c1ccncc1	0.6	i	0.68	-9	33	55	118
COC(=O)c1ccc(C)c(NC(=O)CN(c2cc(OC)ccc2OC)S(C)(=O)=O)c1	-1.6	i	0.78	1	11	126	104
COc1cccc(Nc2ncccc2C(=O)Nc2ccccc2)c1	-1.5	i	0.84	-7	42	96	102
O=[N+]([O-])c1cc(/C=N/n2c(-c3ccncc3)n[nH]c2=S)ccc1Cl	·	i	0.8	-4	·	·	98
Cc1cccc(N2CCN(S(C)(=O)=O)CC2)c1C	-0.3	·	·	-4	·	·	108
COc1ccc(C(=O)/C=C/Sc2nc3ccccc3o2)cc1	·	i	0.56	·	·	·	98

(next part)
SMILES	GALR2 agonist	HSV replic up	HSV replic up primary fold	PKD1 kinase inh	Insulin prom inh	Insulin prom inh cell count	RGS16-Gao
Cc1ccc(NC(=O)CC2=NC(=O)C(CC(=O)Nc3ccccc3F)S2)cc1 (centres undefined)	·	i	0.86	8	-29	71	100
O=C(c1cccc(N2C(=O)C3C4C=CC(C4)C3C2=O)c1)N1CCCCCC1 (centres undefined)	-0.6	i	0.89	0	·	·	100
COc1ccc(OCCNC(=S)Nc2cccc3ccccc23)cc1	-4.2	i	1	21	19	105	105
CCOC(=O)c1cc2c(=O)n3ccccc3nc2n(CCOC)c1=NC(=O)C(C)(C)C	8.7*	i	0.69	-3	0	95	64
C#CC[N+](C)(C)CCN1C(=O)C2C(c3ccccc3)C=CC(c3ccccc3)C2C1=O (centres undefined)	·	i	0.94	-4	·	·	100
CN(c1ccccc1)C(c1ccc(F)cc1)c1nnnn1C1CCCC1 (centres undefined)	-0.7	i	0.96	18	·	·	101
Oc1ccc(-c2nc3ccccn3c2NCc2ccc3c(c2)OCO3)cc1	-0.1	i	0.94	8	-25	119	84
Cc1ccc(C=Nc2ccccc2C#N)s1	-0.2	i	0.94	1	13	86	99
Nc1cc(C(=O)O)ccc1Nc1ccccc1	-1.7	i	1	2	-13	112	100
CNC(=O)NC(=O)C(OC(=O)c1cccc(S(=O)(=O)N2CCCCC2)c1)c1ccccc1 (centres undefined)	1.0	i	1	-15	-37	96	65
COc1ccc(-c2oc(/N=C/N3CCOCC3)c(C#N)c2-c2ccc(OC)cc2)cc1	1.0	i	0.9	-4	·	·	100
CCNC(=S)Nc1cc(OCC)c(NC(=O)c2ccco2)cc1OCC	-0.1	i	1	0	-27	93	156

Rewritten as labelled records: part of the list above
> Cc1ccc(NC(=O)CC2=NC(=O)C(CC(=O)Nc3ccccc3F)S2)cc1 (centres undefined)
- GALR2 agonist: ·
- HSV replic up: i
- HSV replic up primary fold: 0.86
- PKD1 kinase inh: 8
- Insulin prom inh: -29
- Insulin prom inh cell count: 71
- RGS16-Gao: 100
> O=C(c1cccc(N2C(=O)C3C4C=CC(C4)C3C2=O)c1)N1CCCCCC1 (centres undefined)
- GALR2 agonist: -0.6
- HSV replic up: i
- HSV replic up primary fold: 0.89
- PKD1 kinase inh: 0
- Insulin prom inh: ·
- Insulin prom inh cell count: ·
- RGS16-Gao: 100
> COc1ccc(OCCNC(=S)Nc2cccc3ccccc23)cc1
- GALR2 agonist: -4.2
- HSV replic up: i
- HSV replic up primary fold: 1
- PKD1 kinase inh: 21
- Insulin prom inh: 19
- Insulin prom inh cell count: 105
- RGS16-Gao: 105

The list goes on.
SMILES	GALR2 agonist	HSV replic up	HSV replic up primary fold	PKD1 kinase inh	Insulin prom inh	Insulin prom inh cell count	RGS16-Gao
CCOC(=O)N1CCC(Nc2c(NCCCN(CC)CC)c(=O)c2=O)CC1	-0.5	i	0.92	-4	·	·	101
COc1ccccc1-c1nnn(CC#N)n1	-1.1	i	1.3	-1	8	83	63
COC(C[C@H]1O[C@@H]1[C@@H](O)[C@H](C)OCc1ccccc1)OC	·	i	1.1	·	·	·	98
O=C(O)C1C2C=CC(CC2)C1C(=O)O (centres undefined)	-1.6	i	0.97	0	23	146	103
C/C(=N\OCC(=O)NC12CC3CC(CC(C3)C1)C2)c1cc2ccccc2o1	-0.5	i	0.98	-5	·	·	128
O=C(NC1CCCCC1)NC12CC3CC(CC(C3)C1)C2	·	i	1	-1	-50	112	105
O=C(NNC(=O)c1cccc(O)c1)Nc1ccc([N+](=O)[O-])cc1	·	i	0.88	-7	·	·	103
C=CCn1c(SCc2nc3scc(-c4ccccc4)c3c(=O)[nH]2)nnc1-c1ccccc1F	-0.8	i	0.85	2	-14	54	100
COC(=O)NCC(c1ccco1)N1CCN(c2ccc(OC)cc2)CC1 (centres undefined)	·	i	0.9	-4	·	·	100
COCCN(C(=S)Nc1ccccc1OC)C1CCN(C(C)C)CC1	·	i	0.87	-1	-36	57	98
COc1ccc(/C=N/NC(=O)CN(CCc2ccccc2)S(=O)(=O)c2ccc(NC(C)=O)cc2)cc1OC	0.4	i	0.91	-7	0	105	104
Nc1nc2ccccc2n1CCN1CCCC1	-1.3	i	1	-9	7	80	100
